# Assay outcomes deposited in PubChem by Johns Hopkins Ion Channel Center.
# KCNQ2 pot – KCNQ2 (rat) channel potentiation. B-score at 10 µM. actives 0.54% (n = 310,000). CHO-K1 KCNQ2, FluxOR thallium flux fluorescence; hits give high values. AID 2239;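 active = fluorescence ratio B-score at least 3 SD of library B-scores, with initial fluorescence B-score within 3 SD, cut at about 5.3 in these data; same plate scores as AID 2156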;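 also: B-score of peak minus minimum over baseline fluorescence ratio after K+ and Tl+ stimulus; positive B-score means potentiation of KCNQ2 with more thallium influx and brighter signal; only the inactives scoring about 0 or higher are listed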
# Target sequence (O88943 whole entry, looked up): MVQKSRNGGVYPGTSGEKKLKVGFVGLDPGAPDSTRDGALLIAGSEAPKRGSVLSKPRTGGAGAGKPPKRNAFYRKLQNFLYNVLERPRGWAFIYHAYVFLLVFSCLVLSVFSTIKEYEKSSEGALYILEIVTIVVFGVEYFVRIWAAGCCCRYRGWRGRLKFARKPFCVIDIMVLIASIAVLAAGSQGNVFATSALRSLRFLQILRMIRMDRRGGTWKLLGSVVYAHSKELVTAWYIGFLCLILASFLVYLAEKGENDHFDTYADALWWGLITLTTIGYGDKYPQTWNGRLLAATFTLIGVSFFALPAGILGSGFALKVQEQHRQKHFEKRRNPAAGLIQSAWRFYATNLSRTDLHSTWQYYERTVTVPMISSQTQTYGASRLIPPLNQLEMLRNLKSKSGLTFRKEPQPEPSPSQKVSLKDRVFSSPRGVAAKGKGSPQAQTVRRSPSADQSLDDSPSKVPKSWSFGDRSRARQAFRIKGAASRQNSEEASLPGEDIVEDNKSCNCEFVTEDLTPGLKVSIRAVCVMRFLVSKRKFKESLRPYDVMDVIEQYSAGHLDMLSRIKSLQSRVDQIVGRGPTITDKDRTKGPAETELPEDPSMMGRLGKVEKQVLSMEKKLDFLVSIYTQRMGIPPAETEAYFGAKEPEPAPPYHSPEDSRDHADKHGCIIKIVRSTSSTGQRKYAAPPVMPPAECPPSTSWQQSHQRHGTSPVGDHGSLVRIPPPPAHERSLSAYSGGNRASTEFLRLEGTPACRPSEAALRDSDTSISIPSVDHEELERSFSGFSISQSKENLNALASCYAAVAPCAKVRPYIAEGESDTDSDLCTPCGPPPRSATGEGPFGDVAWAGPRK
# KCNQ2 pot baseline – recorded beside KCNQ2 pot, whose call it bears; B-score; compound at 10 µM; measured here: initial fluorescence intensity artifact check;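 brightness before thallium and not channel activity; 0 = typical well and far values either way flag optical interference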
# An asterisk follows results filed as active. Not all compounds are listed (hit frequency here may not be typical).
# The first 4 records as a preview:
cpd	Compound	KCNQ2 pot	KCNQ2 pot baseline
1	Cn1ccnc1SCC(=O)c1ccc(O)cc1	0.22	-0.98
2	COc1ccc(CCN(C)C/C=C/c2ccccc2[N+](=O)[O-])cc1OC	0.06	0.21
3	CC(C)[C@H](NC(=O)c1ccccc1F)C(=O)Nc1ccc(F)c(F)c1	0.92	-0.07
4	COC(=O)c1ccccc1NC(=O)CN1CCCCCC1	0.12	-1.1

# This part in full, from the first entry:
cpd	Compound	KCNQ2 pot	KCNQ2 pot baseline
1	Cn1ccnc1SCC(=O)c1ccc(O)cc1	0.22	-0.98
2	COc1ccc(CCN(C)C/C=C/c2ccccc2[N+](=O)[O-])cc1OC	0.06	0.21
3	CC(C)[C@H](NC(=O)c1ccccc1F)C(=O)Nc1ccc(F)c(F)c1	0.92	-0.07
4	COC(=O)c1ccccc1NC(=O)CN1CCCCCC1	0.12	-1.1
5	COC(=O)c1[nH]c2ccc(F)cc2c1NC(=O)CCN1CC(C)OC(C)C1 (stereo not given)	0.56	-0.76
6	N#Cc1ccccc1OCCOCCNC1CCCC1	0.98	-2.1
7	N/C(=N\OC(=O)c1ccccc1[N+](=O)[O-])c1ccccn1	0.33	-0.6
8	O=C(CN1CCOCC1)Nc1nc(-c2ccc(Cl)cc2)cs1	0.39	-3
9	C1=C(c2ccccc2)Nc2nnnn2C1	1.1	-0.27
10	Cc1nc2ccc(Cl)cc2c(-c2ccccc2F)c1CC(=O)O	1.6	-0.44
11	CC(=O)N1CCN(C(=O)c2ccc(OC3CCN(Cc4ccccn4)CC3)cc2)CC1	0.64	-3.7
12	COc1ccc(C(=O)NNC2CC(=O)N(Cc3ccc(Cl)cc3)C2=O)cc1OC (stereo not given)	0.57	0.11
13	CCCC(=O)Nc1ccc(Br)c(Cl)c1	0.53	0.62
14	Cn1c(Cn2c(=O)sc3ccccc32)nnc1SCC(N)=O	2.3	1.9
15	O=C(Cc1cccc2ccccc12)Nc1ccc2c(c1)C(=O)NC2=O	0.11	-0.41
16	COc1ccc(/C=N/Nc2nc(Nc3ccccc3)nc(N3CCCC3)n2)cc1[N+](=O)[O-]	2	-2.2
17	Cn1c(SCC(=O)N2CCc3ccccc32)nnc1-c1ccc(S(=O)(=O)N2CCCC2)cc1	1.1	0.63
18	Cn1cccc1C(C#N)c1ccccc1C#N (stereo not given)	0.06	-0.56
19	O=C(Nc1cccc(Oc2ccc3c(c2)C(=O)NC3=O)c1)c1cccs1	0.16	-0.95
20	Cc1nc(NC(=O)CSc2ccccc2N)sc1C	0.44	0.34

# Reprinted at random: 2 records from the list, in no set order.
cpd	Compound	KCNQ2 pot	KCNQ2 pot baseline
3	CC(C)[C@H](NC(=O)c1ccccc1F)C(=O)Nc1ccc(F)c(F)c1	0.92	-0.07
17	Cn1c(SCC(=O)N2CCc3ccccc32)nnc1-c1ccc(S(=O)(=O)N2CCCC2)cc1	1.1	0.63

# Next section
cpd	Compound	KCNQ2 pot	KCNQ2 pot baseline
21	CCC(OC(=O)c1nsc(Cl)c1Cl)C(=O)NCC1CCCO1 (stereo not given)	0.17	-0.03
22	O=C(N/N=C/c1ccccc1OCc1ccccc1)c1cccs1	0.29	-0.04
23	Cc1ccc(C(=O)c2ccccc2C(=O)O)c(O)c1	1.5	0.04
24	COc1cccc(NC(=O)C2CCCN(S(=O)(=O)c3cccc4nsnc34)C2)c1 (stereo not given)	1.6	-3.1
25	CSc1nc(-c2ccccc2)nc(NC(C)=O)c1C(C)=O	1	-0.43
26	O=C(O)c1nn(Cc2nc3ccccc3o2)c(=O)c2ccccc12	2.2	-0.35
27	COc1cc(OC)c(OC)cc1/C=N/n1c(COc2ccccc2)n[nH]c1=S	1.6	-0.89
28	COc1cc(C2C(C(=O)c3cccs3)=C(O)C(=O)N2Cc2ccco2)cc(OC)c1OC (stereo not given)	0.37	0.34
29	COc1cc(C(=O)NC2CC3CCCC(C2)N3Cc2ccccc2)cc(OC)c1OC (stereo not given)	0.44	0.45
30	COc1ccc(-n2nnnc2/C=C/Nc2cc(C(F)(F)F)ccc2OC)cc1	0.04	1.1
31	CCCCCn1c(N2CCC(C(N)=O)CC2)nc2c1c(=O)[nH]c(=O)n2C	0.88	0.58
32	COc1ccc(NC(=O)c2ccco2)cc1NC(=O)c1ccccc1[N+](=O)[O-]	1.6	0.43
33	COc1ccc(/C=N/NC(=O)c2ccn[nH]2)cc1COc1ccc([N+](=O)[O-])c(C)c1	0.73	-0.4
34	CCC1CCCCN1S(=O)(=O)c1ccccc1[N+](=O)[O-] (stereo not given)	0.05	0.58
35	Cc1ccc(N/N=C(\C#N)C(=N)N2CCOCC2)cc1	1.6	0.32
36	CCCCS(=O)(=O)N1CCCC(C(=O)NCCc2ccccc2)C1 (stereo not given)	1.4	0.26
37	CCn1c(/C(C#N)=C(\O)CCc2ccccc2)nc2ccccc21	1.2	-1.1
38	N#Cc1cc2ccccc2nc1SCC(=O)NC1CC1	0.4	-1.3
39	COc1cccc(/C=C/C(=O)Nc2ccc3c(c2)OCCO3)c1OC	0.34	-0.15
40	CCOC(=O)CC1(NC(=O)C2CCC(=O)N(Cc3ccccc3OC)C2)CCCCC1 (stereo not given)	0.37	1.9
41	O=C(CCCn1cnc([N+](=O)[O-])n1)Nc1cccc(Cl)c1Cl	0.2	0.94
42	COc1ccc(N2C(=O)CC(c3cc(OC)c(OC)c(OC)c3)CC2=O)cc1	0.04	-0.49
43	COCCCn1c(C(=O)N2CCOCC2)cc2c(=O)n3ccccc3nc21	1.6	-1.2
44	COc1ccc(OC)c(S(=O)(=O)Nc2cccc3ccc(O)cc23)c1	0.59	0.93
45	O=C(c1ccco1)N1CCN(S(=O)(=O)c2ccc(S(=O)(=O)NC3CC3)cc2)CC1	0.25	0.11
46	Cc1nc2nc(-c3ccccc3)[nH]n2c(=O)c1C	0.25	-0.54
47	Cn1c(SCc2ccccc2)nc2c1c(=O)[nH]c(=O)n2C	1.6	-0.64
48	Cc1cc(C)c(NC(=O)CSc2nnc(-c3ccco3)n2N)c(C)c1	0.26	0.92
49	CN(NC(=O)c1ccccc1F)c1ccc([N+](=O)[O-])cn1	1.7	-0.01
50	COC(=O)CN1C(=O)[C@H]2[C@@H](C3CC3)N3C(=O)CN(Cc4ccccn4)C(=O)[C@@]3(Cc3ccccc3)[C@H]2C1=O	0.47	0.68
51	CCCOC(=O)c1ccc(Cl)c(NC(=O)c2ccc(-c3ccccc3)cc2)c1	0.96	-1.2
52	COc1ccc(/C=C2\CCCc3c2nc2ccc(C)cc2c3C(=O)O)cc1O	0.56	-1.6
53	Cc1cc(S(=O)(=O)N2CCN(Cc3ccc4c(c3)OCO4)CC2)cc(C)c1N1CCCC1=O	3.5	0.4
54	CCOC(=O)N1CCN(C(=O)c2nn(-c3cc(OC)cc(OC)c3)c(=O)c3ccccc23)CC1	0.29	-0.02
55	COc1cccc(-n2c(SCC(N)=O)nnc2-c2c[nH]c3ccccc23)c1	0.1	-0.16
56	O=C(C1=C[C@H](c2ccc3c(c2)OCO3)C[C@H](OCCCCO)O1)N1CCOCC1	0.23	-0.71
57	Nc1cnc(Br)cc1Br	2.2	-0.3
58	CC(C)CN(C(=O)CCCc1nc2ccccc2c(=O)[nH]1)c1c(N)n(Cc2ccccc2)c(=O)[nH]c1=O	0.37	-2.3
59	Cc1cc(C(=O)COC(=O)CNS(=O)(=O)c2ccc3ccccc3c2)c(C)n1-c1ccccc1	0.11	2.2
60	COc1cc(C(=S)N2CCOCC2)ccc1OC(=O)c1ccc(Br)cc1	2	-0.14
61	NC(=O)CSc1nnc(-c2ccc(S(=O)(=O)N3CCCC3)cc2)n1Cc1ccco1	0.4	-0.54
62	COc1ccccc1NC(=O)Nc1c(C)nn(C)c1C	0.52	-1.3
63	COc1ccc2[nH]c3nc(SCc4nnc(-c5ccccc5)o4)nnc3c2c1	0.38	-0.02
64	COc1ccc(C2NC(=S)NC(C)=C2C(=O)c2ccccc2)cc1OC (stereo not given)	0.65	-1
65	COc1ccc(-c2nc(CC(=O)O)cs2)cc1	0.19	0.07
66	O=C(O)/C=C/C(=O)c1ccc2c(c1)CCc1ccccc1-2	8.6*	3.3*
67	Cc1ccc(S(=O)(=O)NC(=O)CSc2nc3ccccc3s2)cc1	1.1	0.86
68	Cc1cc(C)c(OCC(=O)OCCNC(=O)c2cccnc2)c(C)c1	0.41	-1.2
69	CCOc1ccc(NC(=O)CSc2nc(-c3cccs3)cc(C(F)(F)F)n2)c([N+](=O)[O-])c1	0.34	0.16
70	Cc1nc(SCc2ccc([N+](=O)[O-])cc2)n[nH]1	0.02	1.7

# Further results:
cpd	Compound	KCNQ2 pot	KCNQ2 pot baseline
71	O=C(CN1CCC(NC(=O)Nc2ccc(F)cc2)CC1)Nc1ccccc1[N+](=O)[O-]	0.11	-0.57
72	CC1CCN(CC(=O)N2CCN(c3ccccc3)CC2)CC1	0.76	-0.04
73	CCN(CC)C(=O)Cn1cc(C(=O)C(=O)NCc2cccnc2)c2ccccc21	0.6	1
74	COc1cc(NC(=O)C2CCN(S(=O)(=O)c3ccc4c(c3)CC(C)N4C(C)=O)CC2)cc(OC)c1OC (stereo not given)	0.21	0.17
75	CCN1CCCC1CNC(=O)C(=O)NC1CC1 (stereo not given)	0.62	1.5
76	CS(=O)(=O)N(CC(=O)N1CCN(Cc2ccccc2)CC1)c1ccccc1F	0.57	-0.85
77	C=CCN(C(=O)c1ccccc1)C1CCS(=O)(=O)C1 (stereo not given)	0.82	1.6
78	CN(Cc1ccccc1)S(=O)(=O)c1ccc2[nH]c(=O)oc2c1	1.2	0.71
79	COc1ccc(C(=O)Nc2cc3c4c(c2)C(C)C(=O)N4CCC3)cc1OC (stereo not given)	0.4	-0.9
80	COc1ccc([N+](=O)[O-])cc1N(CC(O)CN1CCCCC1)S(=O)(=O)c1ccc(C)cc1 (stereo not given)	1.2	0.54
81	N#Cc1ccccc1NC(=O)Nc1ccc(Cl)cc1	1.7	1.1
82	CN1C(N)=NC(=O)/C1=C/c1ccc(F)cc1	0.02	4
83	C1CCC(NC2=NCCC2)CC1	0.41	0.07
84	O=C(c1cccc(F)c1)N1CCCC(C(=O)N2CCCCC2)C1 (stereo not given)	1.2	0.56
85	O=C(Nc1cccc(Cl)c1)Nc1csc([N+](=O)[O-])c1	2	-1.1
86	CCN1CCCC1CN(Cc1cc2cc(OC)ccc2[nH]c1=O)C(=O)NCc1ccccc1 (stereo not given)	0.01	-0.04
87	CC1=NN(C(=O)Cc2ccc([N+](=O)[O-])cc2)C(O)(c2cccnc2)C1 (stereo not given)	0.48	-0.65
88	COc1ccc(C2CC(=O)N3C(=C2C#N)SCC3(O)c2ccccc2)cc1 (stereo not given)	0.48	1.1
89	CCN(CC)S(=O)(=O)c1ccc(N2CCOCC2)c(NC(=O)c2cc([N+](=O)[O-])ccc2Cl)c1	0.03	-1.8
90	CC(=O)c1ccc(N2CCN(C(=O)c3cccs3)CC2)c(F)c1	0.66	1.4
91	CC(C)C[C@H](NC(=O)Nc1cccc(Br)c1)C(=O)O	0.96	-1.3
92	O=C(CSc1nnc(-c2ccncc2)s1)Nc1ccc(Cl)c(C(=O)O)c1	0.17	2
93	CCOC(=O)c1ccc(CNC(=O)c2cc(C(C)(C)C)oc2C)o1	0.69	0.2
94	CCCCC(=O)Nc1ccc(NC(=S)NC(=O)CC)cc1OC	0.65	0.07
95	CC(=O)c1ccc(NC(=O)c2sc3nc4n(c(=O)c3c2C)CCCCC4)cc1	0.17	-0.7
96	CC(C)C(NC(=O)c1ccc2c(c1)OCO2)C(=O)N/N=C\c1ccco1 (stereo not given)	0.63	-0.46
97	CC(C)(C)NC(=O)COC(=O)CCC(=O)c1cccs1	1.8	0.95
98	CC1CN(C2CCN(C(=O)COc3ccccc3)CC2)CC(C)O1 (stereo not given)	0.09	-2.7
99	CCOC(=O)c1c(NC(=O)Cc2ccccc2)sc2c1CC(C)(C)NC2(C)C	1.1	-1.8
100	Cc1ccc(-n2c(=O)cc(N3CC(C)OC(C)C3)[nH]c2=O)cc1 (stereo not given)	0.73	-1.1
101	COc1cccc(C2C(C#N)=C(N)OC(C(C)(C)C)=C2C#N)c1 (stereo not given)	0.77	-3.3
102	Brc1ccccc1OCCCCN1CCCCC1	0.59	0.46
103	O=C(Nc1cccc2nsnc12)c1cccnc1Cl	1.5	0.39
104	Cc1ccc(S(=O)(=O)c2c(N)n(C)c3nc4ccccc4nc23)cc1	0.47	0.89
105	CC(CCc1ccccc1)NC(=O)Cn1cccc1C(=O)c1ccccc1 (stereo not given)	0.67	-0.67
106	COc1ccc(Cl)cc1NC(=O)COC(=O)CCCC1=NS(=O)(=O)c2ccccc2N1	1.2	2.4
107	COc1ccc(/C=C/CN2CCN(CC(C)C)C(CCO)C2)cc1 (stereo not given)	2.8	-0.05
108	Cn1c(N)c(C(=O)c2ccc(C#N)cc2)c(=O)n(C)c1=O	0.03	0.35
109	Cc1cc([N+](=O)[O-])nn1CC(=O)NCCCN1CCOCC1	0.41	-0.44
110	COCC(=O)NCCSc1c(C)[nH]c2ccccc12	0.02	1.3
111	O=C(NCCc1cn2ccccc2n1)c1cc(COc2c(F)cccc2F)on1	0.28	-0.82
112	COC(=O)C1=C(C)N(C)C(=S)NC1c1ccc(OC)cc1OC (stereo not given)	1.3	-0.16
113	CC1CCC2(CC1)NC(=O)N(CC(=O)NCc1cccs1)C2=O (stereo not given)	0.26	0.78
114	COc1ccccc1OCC(O)CN1CCOCC1 (stereo not given)	1.5	-0.12
115	CCc1ccc(/C=C/C(=O)c2ccc(N3CCOCC3)cc2)cc1	0.02	-0.6
116	COc1ccc(CNC(=O)N2CCN(S(=O)(=O)c3ccccc3)CC2)cc1	0.36	-0.7

# Of the compounds above, these have a CF3 group.
cpd	Compound	KCNQ2 pot	KCNQ2 pot baseline
30	COc1ccc(-n2nnnc2/C=C/Nc2cc(C(F)(F)F)ccc2OC)cc1	0.04	1.1
69	CCOc1ccc(NC(=O)CSc2nc(-c3cccs3)cc(C(F)(F)F)n2)c([N+](=O)[O-])c1	0.34	0.16
